# Compound activity (PubChem)
# INS promoter inh: TRM-6 insulin promoter activity inhibition; TRM-6 cells (human fetal islet line), insulin promoter-eGFP reporter, imaging; reporter expression induced with tamoxifen; AID 1273; hit rate 0.9% among 130,000; inhibition, % at 2 µM;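 active means inhibition above the mean plus 3 SD, with well images judged a real hit on visual review, cut at about 60% in these data, passing the limit was not always enough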
# HSV replic up: HSV replication enhancement; HSV replication augmentation in cells, fold increase; maximum fold increase; hit rate 0.005% among 220,000; AID 1956;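 active means peak rise of 1.5-fold or more in the series; tested in PC3 cells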;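 further: first round at 10 µM; read as green reporter fluorescence; hits show the peak of a series up to 25 µM; 1 = signal of infected wells without compound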
# PKD1 kinase inh: blocks activity of human protein kinase D1 | AID 797 | Q15139 | PKD1 kinase fluorescence polarization assay | inhibition, %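 (about 10 µM by stock and volumes)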 | hit rate 0.056% among 200,000;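 active means inhibition of 50% or more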;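 further: controls were vehicle for no effect and a reference inhibitor for full effect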
# RGS16-Gao HTS: regulators of human RGS16-Galphao interaction; O15492+P09471; bead-based flow cytometry RGS16-Galphao binding, fluorescence; actives lie on both sides; binding response (% of control), % at 10 µM; hit rate 0.38% among 220,000;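 active means below 25% or above 175%, edge rows of some plates excepted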;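 further: Galphao activated by GDP with aluminum fluoride before binding; 100% = wells without compound and 0% = beads without RGS; some results beyond the cut were filed as inactive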
# Target sequence (O15492 whole entry, looked up): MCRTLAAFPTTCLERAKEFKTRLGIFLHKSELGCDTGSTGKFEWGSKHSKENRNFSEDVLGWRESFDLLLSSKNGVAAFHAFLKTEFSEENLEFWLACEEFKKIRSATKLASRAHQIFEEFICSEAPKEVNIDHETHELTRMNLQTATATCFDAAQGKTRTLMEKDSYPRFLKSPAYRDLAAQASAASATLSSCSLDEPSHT
# Target sequence (P09471 whole entry, looked up): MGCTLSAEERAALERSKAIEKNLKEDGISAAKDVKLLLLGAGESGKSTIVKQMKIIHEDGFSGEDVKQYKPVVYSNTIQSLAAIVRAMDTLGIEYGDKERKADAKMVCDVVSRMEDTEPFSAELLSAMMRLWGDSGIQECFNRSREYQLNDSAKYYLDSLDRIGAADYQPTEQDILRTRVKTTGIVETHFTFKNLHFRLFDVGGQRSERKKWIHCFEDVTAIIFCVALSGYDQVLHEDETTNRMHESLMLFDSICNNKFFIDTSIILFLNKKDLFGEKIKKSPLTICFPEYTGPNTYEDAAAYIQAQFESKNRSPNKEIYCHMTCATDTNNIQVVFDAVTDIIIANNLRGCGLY
# GALR2 ag: activates the human galanin receptor 2; activation, %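 (tested at 5 µM)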; hit rate 0.48% among 140,000; AID 803; GALR2-expressing cells, agonist activation read-out; O43603;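 active means above mean plus 3 SD of all compounds, about 5% in these data, not always enough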;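 further: 0% = vehicle buffer wells and 100% = reference agonist at full effect; tested in CHO reporter cells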
# Target sequence (O43603 whole entry, looked up): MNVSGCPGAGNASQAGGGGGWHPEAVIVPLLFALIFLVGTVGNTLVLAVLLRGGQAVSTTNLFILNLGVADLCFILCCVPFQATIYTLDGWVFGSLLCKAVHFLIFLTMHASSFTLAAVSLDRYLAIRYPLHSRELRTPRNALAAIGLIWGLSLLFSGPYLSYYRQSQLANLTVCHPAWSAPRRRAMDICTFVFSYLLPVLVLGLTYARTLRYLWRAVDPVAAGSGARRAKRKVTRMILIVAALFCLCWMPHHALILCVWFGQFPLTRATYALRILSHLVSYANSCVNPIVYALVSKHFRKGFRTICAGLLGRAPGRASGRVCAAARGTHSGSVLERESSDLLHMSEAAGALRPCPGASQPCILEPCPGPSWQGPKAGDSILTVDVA
# INS promoter inh cell count: second read-out of INS promoter inh, no call of its own (marks repeat the call); normalized cell count, %; measured here: cell count, toxicity; reference of the scale not given here;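 cells exposed to compound for 48 h; stained nuclei by imaging scaled within each plate; lower means fewer cells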
# HSV replic up primary fold: further read-out of HSV replic up, marked with its call; fold increase; compound at 10 µM; measured here: primary screen fold increase 10 uM; tested in PC3 cells;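 GFP signal in the first replicate; 1 = infected wells without compound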
# * marks the source's active call; other numbers are inactive results; i = inactive; . = no result given.
canonical_smiles | INS promoter inh | INS promoter inh cell count | HSV replic up | HSV replic up primary fold | PKD1 kinase inh | RGS16-Gao HTS | GALR2 ag
CC(C)C(c1nnnn1CC1CCCO1)N1CCN(Cc2ccc3c(c2)OCO3)CC1 (configuration not stated) | 8 | 152 | i | 0.91 | -6 | 104 | -0.2
COc1ccc(-c2cc(C(=O)NCC(C)C)no2)cc1 | 6 | 178 | i | 1.1 | -5 | 99 | -3.1
O=C(Cc1ccccc1[N+](=O)[O-])Nc1ccccc1C(=O)N1CCOCC1 | . | . | i | 1.2 | -1 | 101 | .
Cc1ccc(-c2nnc(Cc3ccc(Cl)cc3)o2)cc1 | . | . | i | 1 | -12 | 70 | -1.6
Cc1ccc(C(=O)N2CCN(c3cc4c(cc3[N+](=O)[O-])n(C)c(=O)n4C)CC2)cc1 | . | . | i | 1.1 | -9 | 105 | -1.1
Cn1c(OCc2cccnc2)nc2c1c(=O)n(Cc1ccc(F)cc1)c(=O)n2C | . | . | i | 0.89 | . | 101 | .
Cc1cc(C)cc(OCC(=O)N2CCCCCC2)c1 | 13 | 82 | i | 0.83 | -2 | 192 | -2.4
CCOc1ccc(-c2c(=O)n(OCc3ccc([N+](=O)[O-])cc3)c3ccccc3[n+]2[O-])cc1 | . | . | i | 0.83 | -7 | 108 | -0.5
Cc1ccc(N2CCN(S(=O)(=O)N(C)C)CC2)cc1C | 39 | 115 | i | 0.94 | -11 | 102 | .
CC1CCC2(CC1)NC(=O)N(CC(=O)Nc1ccc3c(c1)OCCO3)C2=O (configuration not stated) | -27 | 100 | i | 0.91 | -4 | 114 | .
O=C(CNC(=S)N(CCCN1CCOCC1)Cc1cccs1)NC1CCCCCCC1 | -22 | 138 | i | 1 | 15 | 105 | 0.0
Cc1nc(N)ncc1C(=O)Nc1ccccc1 | . | . | i | 0.99 | -4 | 100 | .
CC(=O)c1cnc2c(-c3cccc(Br)c3)cnn2c1C | -5 | 95 | i | 0.86 | -12 | 106 | -0.8
COc1ccc(C(c2nnnn2C2CCCC2)N2CCC(C)CC2)cc1 (configuration not stated) | . | . | i | 1.1 | -3 | 100 | -0.8
O=C(Nc1ccccc1)c1cc(S(=O)(=O)N2CCOCC2)cs1 | -4 | 128 | i | 0.89 | 1 | 100 | -1.6
CCc1ccc(NC(=S)Nc2ccc3cn[nH]c3c2)cc1 | 43 | 173 | i | 0.94 | 8 | 102 | -1.5
COCCN(C(=O)CCc1ccc(OC)cc1)c1nnc(-c2ccncc2)s1 | . | . | i | 0.96 | -11 | 105 | .
CC1CC(C)CN(S(=O)(=O)c2ccc(Oc3ccc([N+](=O)[O-])cc3)cc2)C1 (configuration not stated) | 13 | 118 | i | 1 | -5 | 104 | -1.9
CC(=O)c1ccc(N2CCN(C(=S)Nc3cc(C)ccc3C)CC2)cc1 | 44 | 73 | i | 0.96 | -7 | 64 | -1.2
Cc1ccc(NC(=O)/C(Cl)=C/c2ccccc2)cc1C | -53 | 77 | i | 0.96 | -3 | 107 | -0.4
Cc1nc2ccccc2c(=O)n1NC(=O)c1ccc([N+](=O)[O-])cc1 | 56 | 114 | i | 0.94 | -6 | 118 | .
CCOc1ccc(-c2cc(CCCC(=O)NCc3ccco3)no2)cc1 | . | . | i | 0.96 | -9 | 102 | -1.6
COc1ccc(C2C(CC(=O)O)=C(O)C(=O)N2c2ccccc2)cc1 (configuration not stated) | -18 | 93 | i | 0.94 | -12 | 103 | -0.2
COc1cc(NC(=O)c2cccs2)c(C(=O)OCC(=O)c2cc(C)n(-c3ccccc3)c2C)cc1OC | 33 | 124 | i | 0.98 | 10 | 98 | -0.9
O=C(Cc1csc(NC(=O)c2ccccc2)n1)NO | -22 | 137 | i | 0.94 | -5 | 107 | .
O=C(c1ccc(Cl)cc1)N1CCN(c2cccc3[nH]ccc23)CC1 | . | . | i | 0.99 | . | 99 | .
O=C(COC(=O)Cc1ccccc1F)Nc1ccc2c(c1)OCO2 | . | . | i | 0.96 | 0 | 102 | .
COc1cccc(CNC(=O)Cn2nc(-c3ccc(Cl)cc3)ccc2=O)c1 | 0 | 107 | i | 1 | -3 | 84 | -4.1
Cc1cccn2c(CNCCCOc3cccnc3)c(C(=O)N3CCOCC3)nc12 | . | . | i | 0.73 | -3 | 110 | .
CC(C)CC(=O)CC1(O)C(=O)Nc2ccccc21 (configuration not stated) | 39 | 157 | i | 1.1 | 1 | 104 | .
CCCCN(CC)C(=S)Nc1ccc2nc3n(c(=O)c2c1)CCCCC3 | 12 | 125 | i | 0.77 | -5 | 105 | 1.4
CCc1ccc(/C=N/NC(=O)c2cc(C3CC3)nc3ccccc23)s1 | -5 | 86 | i | 0.84 | -7 | 103 | 1.0
Cc1cc(C)n2c(SCc3ccc(C#N)cc3)nnc2n1 | 15 | 91 | i | 0.95 | -8 | 106 | 0.1
NC(=O)CSc1nnc(C2CC2)n1Cc1ccccc1 | . | . | i | 1.1 | 13 | 101 | 0.0
COC(=O)CSC(=S)N1C(C)CCCC1C (configuration not stated) | . | . | i | 1 | -5 | 103 | .
Cc1ccccc1OCC(=O)Nc1ccc2c(c1)C(=O)c1ccccc1C2=O | . | . | i | 1 | -3 | 102 | -1.2
COc1ccc(N2CC(NC(=O)NC(C)(C)C)CC2=O)cc1 (configuration not stated) | . | . | i | 1 | -7 | 104 | -0.7
COc1ccc(/C=C2\S/C(=N/S(=O)(=O)c3cccs3)NC2=O)cc1 | -13 | 146 | i | 1.1 | -3 | 103 | .
O=C(Nc1ncnc2c1CCC2)C12CC3CC(CC(C3)C1)C2 | . | . | i | 1 | 9 | 98 | -0.7
CC(=O)Nc1ccc(NS(=O)(=O)c2cn(C)c(=O)n(C)c2=O)cc1 | . | . | i | 1 | 7 | 97 | -2.0
O=C(/C=C/c1ccc(-c2ccccc2[N+](=O)[O-])o1)c1ccc(F)cc1 | . | . | i | 0.83 | 1 | 90 | -4.1
CC(C)(C)C1CCc2onc(C(=O)Nc3cnn(Cc4ccc(F)cc4)c3)c2C1 (configuration not stated) | 18 | 86 | i | 0.69 | -7 | 99 | -1.8
CSC1=NCCCN1C(=O)c1c(-c2ccccc2Cl)noc1C | . | . | i | 0.96 | . | 95 | .
CCCNS(=O)(=O)c1ccc(CCC(=O)N2CCN(c3ccc(OC)cc3)CC2)cc1 | 29 | 184 | i | 0.89 | -4 | 108 | -0.5
COc1cccc(CNC(=O)CCc2nnc(C3CCCCC3)o2)c1 | . | . | i | 0.93 | 12 | 94 | .
CN(CC1CCOCC1)C(=O)CC1C(=O)NCCN1Cc1cccc(Oc2ccccc2)c1 (configuration not stated) | . | . | i | 0.95 | -4 | 100 | .
Cc1ccc(S(=O)(=O)N2CCC(O)(c3cccnc3)CC2)cc1 | -34 | 171 | i | 1 | -2 | 105 | -1.6
Cc1cccc(-c2nc(C#N)c(N3CCCCCC3)o2)c1 | -12 | 154 | i | 0.98 | -6 | 103 | -0.3
CC/C(=N\NC(C)=O)c1ccc(OC(F)F)cc1 | . | . | i | 1 | 2 | 104 | .
COc1cc(-c2nc(CN(C)C(C)c3ccncn3)c(C)o2)ccc1F (configuration not stated) | . | . | i | 0.94 | -6 | 98 | .

# Continuation:
SMILES	INS promoter inh	INS promoter inh cell count	HSV replic up	HSV replic up primary fold	PKD1 kinase inh	RGS16-Gao HTS	GALR2 ag
O=C1CCC(c2ccccc2)=NN1	-20	68	i	0.95	-4	31	.
CC(Cc1ccccc1)NC(=O)C1(c2ccccc2)CCOCC1 (configuration not stated)	-40	51	i	0.81	1	98	-1.4
CCN1C(=O)CC(N2CCN(c3ccc(Cl)cc3)CC2)C1=O (configuration not stated)	.	.	i	1	-3	105	-0.7
COc1cc(C2C(C#N)=C(N)OC3=C2C(=O)CC(C)(C)C3)ccc1OCCN1CCOCC1 (configuration not stated)	.	.	i	0.98	.	98	.
O=C(O)COc1ccccc1/C=N/Nc1ccc(S(=O)(=O)Nc2ccc(Cl)cc2)cc1[N+](=O)[O-]	.	.	i	1.1	-1	93	.
CC(C)Cn1c(=O)c2ccccc2n2c(SCC(=O)N3c4ccccc4CC3C)nnc12 (configuration not stated)	19	101	i	0.94	-5	115	-1.4
O=C(c1ccc2c(c1)OCCO2)N1CCN(Cc2ccccc2)CC1	-11	96	i	0.8	-4	101	-0.9
COc1ccc2nc(Nc3nc(CSc4nnnn4-c4ccccc4)cc(=O)[nH]3)nc(C)c2c1	14	89	i	0.81	-1	104	-1.7
O=C1CCCC2=C1C(c1ccsc1)CC(=O)N2c1ccccc1F (configuration not stated)	20	105	i	0.89	-3	105	.
CCOCC(=O)Nc1nnc(Cc2ccc(OC)cc2)s1	28	82	i	1	-2	106	-0.2
CC(OC(=O)c1cc2sccc2n1C)C(=O)NCc1ccc(F)cc1 (configuration not stated)	8	121	i	1.1	-3	102	-1.3
CN(C(=O)c1coc(=O)c2ccccc12)c1ccccc1Cl	.	.	i	0.99	-5	104	.
Cc1csc2sc(-c3ccnc(SCC(=O)NCc4ccccc4)n3)c(C)c12	.	.	i	0.79	.	94	.
COc1ccc(NC(=O)CSc2nc(N)c3cc4c(nc3n2)CCCC4)c(OC)c1	.	.	i	1.1	9	99	-0.1
Cc1cc2c(cc1C)/C(=C\C(N)=O)NC(C)(C)C2	11	102	i	1	6	101	-0.9
CCCCOc1ccc(N=Cc2cccs2)cc1	54	131	i	0.86	2	44	-1.6
O=C(NCc1ccccc1)C1COc2ccccc2O1 (configuration not stated)	7	105	i	1.1	3	47	-0.7
O=C1CC(Sc2nnnn2-c2ccccc2)C(=O)N1c1cccc(Cl)c1 (configuration not stated)	32	80	i	1	3	92	-0.6
CC(=O)N(C)c1ccc(NC(=S)Nc2ccccc2)cc1	50	115	i	0.88	1	105	-3.0
Cc1[nH]c2ccccc2c1/C=N/Nc1nncn1N	6	101	i	0.98	3	99	.
COc1ccc(C(=O)N/N=C(\c2ccccc2)c2ccccn2)cc1	-15	87	i	0.59	-10	108	0.0
Cc1cc2nc(CN(C)Cc3c(C(=O)N(C)C)nc4ccc(Cl)cn34)[nH]c2cc1C	-7	53	i	0.72	-2	130	.
CCN1CCN(c2oc(COc3ccc(-c4ccccc4)cc3)nc2C#N)CC1	-17	62	i	0.91	3	94	-0.1
CCOC(=O)C(Cc1c[nH]c2ccccc12)NC(=O)c1ccco1 (configuration not stated)	9	123	i	1	-9	122	-1.6
COC(=O)C1=C(C)N(C)C(=O)NC1c1cc(Cl)c(O)c(OC)c1 (configuration not stated)	-29	117	i	0.96	5	97	-1.4
O=C(NC1CC1)C1=C[C@@H](c2csc3ccccc23)C[C@@H](OCc2ccc(CO)cc2)O1	.	.	i	0.86	-11	87	.
CC(=O)Nc1ccc(O)cc1[N+](=O)[O-]	.	.	i	1.1	.	142	.
CC(=O)C1=C(C)N(c2ccccc2)C(=O)C1(NS(=O)(=O)c1ccc(N)cc1)C(F)(F)F (configuration not stated)	22	60	i	0.98	2	104	.
COCN(C#N)c1nc(OC)nc(OC)n1	37	103	i	0.98	-14	185	-0.8
O=C(CN(C(=O)CCC(=O)Nc1nccs1)c1ccc(F)cc1)NCC1CCCO1 (configuration not stated)	.	.	i	0.97	0	99	-1.0
COc1cc(NC2c3ccccc3C(=O)N2Cc2ccccc2)cc(OC)c1OC (configuration not stated)	.	.	i	0.97	.	107	.
